Source: PubChem BioAssay (National Center for Advancing Translational Sciences (NCATS))
D2 ag = agonists of human D2 dopamine receptor (beta-arrestin). P14416. DiscoveRx PathHunter D2 beta-arrestin, luminescence, 90 min; 100% = 57 uM dopamine signal. activation, % (concentration not given with the values). 0.084% of 360,000 active. AID 624465; in the data active = activation above about 40%; inconclusive = about 15% to 40%; inactive = below about 15%; also: compound concentration not given in the record; the text of the record calls up to 30% inactive
Target sequence (P14416 whole entry, looked up): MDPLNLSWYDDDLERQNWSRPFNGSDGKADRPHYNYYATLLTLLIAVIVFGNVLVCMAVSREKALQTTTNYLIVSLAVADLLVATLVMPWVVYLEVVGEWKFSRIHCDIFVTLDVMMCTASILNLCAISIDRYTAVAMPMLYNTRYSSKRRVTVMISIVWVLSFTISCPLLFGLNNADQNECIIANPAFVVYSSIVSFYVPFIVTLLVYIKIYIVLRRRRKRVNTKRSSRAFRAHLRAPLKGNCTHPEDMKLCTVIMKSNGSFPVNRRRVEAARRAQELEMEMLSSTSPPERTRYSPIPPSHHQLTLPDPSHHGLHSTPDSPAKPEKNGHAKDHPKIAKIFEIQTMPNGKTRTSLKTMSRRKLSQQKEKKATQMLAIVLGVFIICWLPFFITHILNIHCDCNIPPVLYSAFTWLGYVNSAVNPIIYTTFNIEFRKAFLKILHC
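DiscoveRx PathHunter D2 beta-arrestin cells (2,100/well) attached overnight, then compound-stimulated 90 min at 37 C in HBSS/10 mM HEPES/0.1% Tween-20 buffer; beta-galactosidase complementation read by luminescence after 1 h at ambient temperature. Dopamine 57 uM final (EC100) as control.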
gsp agonist = agonists of gsp mutant (McCune-Albright syndrome). AID 624287. Potency, µM (titrated, usually from 76.9 µM), without a hit: at the highest dose activation (cAMP increase), usual class: activators. gsp mutant cells, cAMP HTRF, 30 min; control for the full effect not named in the record. 0.13% of 340,000 active; active = well fitted activation curve with a large enough effect; inconclusive = small, poorly fitted or top-dose-only effect, or another doubt; inactive = no such curve, though single readings can be large or run the other way; cell line not stated here;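 also: phosphodiesterase inhibitor Ro 20-1724 added with compounds to block cAMP breakdown; potency is read from the fitted curve at half-maximal effect; nearly all actives have a fitted effect of over 60% in size; about a fifth of the inactives were tested at one dose only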
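Cells stably selected in G418 were plated at 2000/well, grown 16-24 hr, then given compounds in DMSO with the PDE inhibitor […] (300 uM solution added) for 30 min at 37C; cAMP was read by HTRF.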
D2 PAM = potentiates the human D2 dopamine receptor allosterically; P14416; DiscoveRx D2 beta-arrestin cells, luminescence, 90 min; 100% = 57 uM dopamine signal; potentiation, % (no concentration beside the values); 0.23% of 360,000 active; active = potentiation of 50% or more; inconclusive = 30% to 50%; inactive = 30% or less;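 also: compound concentration not given in the record; tested on top of an EC20 dose of dopamine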
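PathHunter D2 cells, attached overnight at 37 deg C, received compound in DMSO plus dopamine at EC20 (50 nM final) for 90 min at 37 deg C. Beta-arrestin recruitment was read as luminescence after 1 h with detection reagent at ambient temperature.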
Six1-Eya2 inh = Six1/Eya2 interaction inhibition. 0.56% of 360,000 active. Q15475+O00167. AlphaScreen GST-Six1/His-Eya2 binding, biochemical; stronger effect = lower value; control for the full effect not named in the record. AID 651725. activity change, % (no concentration beside the values); in the data active = activity change below about -65%; inconclusive = about -30% to -65%; inactive = above about -30%; also: % is scaled to controls: 0 for no effect and ±100 for the full control effect; compound concentration not given in the record
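AlphaScreen with GST-Six1 and His-Eya2 (5X mix: 250 nM and 500 nM), glutathione donor and nickel acceptor beads; buffer 50 mM Tris pH 8.0, 300 mM NaCl, 1 mM TCEP; 1 h at 37 C in the dark.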
CtBP-E1A blk = inhibitors of CtBP/E1A interaction. activity change, % (test concentration not listed). 0.49% of 340,000 active. AlphaScreen GST-E1A/His-CtBP binding, 1536-well; stronger effect = lower value; control for the full effect not named in the record; in the data active means activity change below about -65%; inconclusive means about -30% to -65%; inactive means above about -30%; also: % is scaled to controls: 0 for no effect and ±100 for the full control effect; compound concentration not given in the record
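GST-E1A and His-tagged CtBP (125 nM each as 5X stock) were preincubated with pin-transferred compound for 2 h at 37 °C in the dark, then glutathione donor and nickel acceptor beads were added for 1 h before AlphaScreen reading.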
gsp antagonist = antagonists of gsp mutant (McCune-Albright syndrome) | gsp-mutant cells, cAMP HTRF, 30 min; control for the full effect not named in the record | Potency, µM (highest dose often 76.9 µM), without a hit: at the highest dose activity change, negative = inhibition, usual class: inhibitors | 0.4% of 340,000 active | AID 624288; active = falling curve of any shape with a large fitted effect; inconclusive = falling curve, mostly with a smaller effect; inactive = flat or rising curve; cell line not stated here;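 also: intracellular cAMP measured with PDE inhibitor Ro 20-1724 present during compound exposure; potency is read from the fitted curve at half-maximal effect; % is scaled to controls: 0 for no effect and ±100 for the full control effect; nearly all actives have a fitted effect of over 65% in size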
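HTRF cAMP measurement after 30 min RT detection following 30 min, 37C compound treatment alongside […] (added as 300 uM solution) in G418-selected cells seeded at 2000/well and grown 16–24 h.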
The depositor's hits bear a star; [ ] = another dose, or the depositor's remark.

`CC(C)C(C(=O)NCC1CCCO1)N(Cc1ccco1)C(=O)CNS(=O)(=O)c1ccccc1` (stereo not drawn) gave D2 ag -6.4, gsp agonist 15%, D2 PAM 6, Six1-Eya2 inh -2, CtBP-E1A blk -1 and gsp antagonist 0%[15.4 µM].
`CCOc1ccc(CN2C(=O)c3ccccc3C2=O)cc1C(=O)Nc1nnc(SCC)s1` gave D2 ag 5.1, gsp agonist 7%[15.4 µM], D2 PAM -17, Six1-Eya2 inh -1, CtBP-E1A blk 3 and gsp antagonist -1%.
O=C(/C=C/[C@H]1O[C@@H](n2ccc(=O)[nH]c2=O)[C@H](O)[C@@H]1O)NCCN1CCOCC1 was read as D2 ag -8.2, D2 PAM -1, Six1-Eya2 inh 8 and CtBP-E1A blk 7.
Screening Cc1ccc(-c2nnc(C)c(N3CCOCC3)n2)cc1 returned D2 ag -2.6, gsp agonist -22%, D2 PAM -22, Six1-Eya2 inh -9, CtBP-E1A blk 0 and gsp antagonist 10%.
CC(C)c1c(C(=O)N/N=C/c2cccc(OCc3ccc(F)cc3)c2)nnn1-c1nonc1N was read as D2 ag 0.0, gsp agonist -17%, D2 PAM -2, Six1-Eya2 inh -2, CtBP-E1A blk -13 and gsp antagonist inconclusive.
`COc1ccccc1NS(=O)(=O)c1cccc(C(=O)N/N=C(\C)c2ccncc2)c1` gave D2 ag 1.5, gsp agonist -42%[inhibitor], D2 PAM 22, Six1-Eya2 inh -6, CtBP-E1A blk 0 and gsp antagonist -2%.
CCOC(=O)c1ccc(CNC(=O)CSc2nnc(-c3ccncc3)o2)cc1 was read as D2 ag -0.1, gsp agonist inconclusive, D2 PAM -18, Six1-Eya2 inh 6, CtBP-E1A blk 6 and gsp antagonist 1%.
`O=C(NCc1ccccc1)c1ccc(CNc2c(N3CCCC3)c(=O)c2=O)cc1` gave D2 ag -2.9, gsp agonist 18%, D2 PAM -8, Six1-Eya2 inh 2, CtBP-E1A blk -4 and gsp antagonist -8%.
For CCCCN(c1ccccc1)c1ncnc(N)c1[N+](=O)[O-] the results were D2 ag -3.6, gsp agonist -4%, D2 PAM -12, Six1-Eya2 inh -4, CtBP-E1A blk 1 and gsp antagonist -5%.
CCc1cccc(C)c1NC(=O)c1cc(-c2ccncc2)nc2ccccc12 was read as D2 ag 0.3, gsp agonist -4%[15.4 µM], D2 PAM 5, Six1-Eya2 inh 3, CtBP-E1A blk 0 and gsp antagonist -7%.
`Cc1cc(C)c2c(CN3CCOCC3)cc(=O)oc2c1C` gave D2 ag -0.6, gsp agonist 11%[15.4 µM], D2 PAM 1, Six1-Eya2 inh 2, CtBP-E1A blk -3 and gsp antagonist -2%.
For Cc1ccc(NC(=O)COc2ncnc3sccc23)cc1S(=O)(=O)N(C)C the results were D2 ag -5.0, gsp agonist 23%, D2 PAM -3, Six1-Eya2 inh -12, CtBP-E1A blk -7 and gsp antagonist -3%.
For C[C@@]12C(=O)N(c3ccccc3)C(=O)N1[C@@H]1c3ccccc3OC[C@@H]1[C@H]2c1ccccc1 the results were D2 ag -7.7, gsp agonist 6%, D2 PAM 12, Six1-Eya2 inh -7, CtBP-E1A blk -4 and gsp antagonist -12%.
`C=CCSc1nc(N)c(C#N)c(-c2ccccc2)c1C#N` gave D2 ag -0.7, gsp agonist -23%, D2 PAM 0, Six1-Eya2 inh 8, CtBP-E1A blk 7 and gsp antagonist 2%.
For O=C(CSc1nnc2scc(-c3ccc(Cl)cc3)n12)NCc1ccco1 the results were D2 ag -2.4, gsp agonist 23%, D2 PAM -18, Six1-Eya2 inh -1, CtBP-E1A blk -6 and gsp antagonist -5%.
Screening O=c1[nH]c(C2CCCN(S(=O)(=O)c3cccc(F)c3)C2)nc2c1nnn2Cc1ccccc1 (stereo not drawn) returned D2 ag -3.1, gsp agonist 4%[15.4 µM], D2 PAM 0, Six1-Eya2 inh -26, CtBP-E1A blk -1 and gsp antagonist -8%.
For COc1ccc(CN(C#N)c2nc(C)cc(C)n2)cc1 the results were D2 ag -2.8, gsp agonist -35%, D2 PAM -6, Six1-Eya2 inh 4 and gsp antagonist 2%.
`COc1ccc(N2CCN(CC(=O)NC(=O)NC(C)(C)C)CC2)cc1` gave D2 ag 3.0, gsp agonist -5%[15.4 µM], D2 PAM -3, Six1-Eya2 inh 4, CtBP-E1A blk -5 and gsp antagonist 5%.
`CCOc1ccc(S(=O)(=O)N2CCN(C(=S)NCc3ccccc3)CC2)cc1` gave D2 ag -2.5, gsp agonist 2%, D2 PAM -19, Six1-Eya2 inh -10 and gsp antagonist -17%.
CCOc1ccc(OCCC(=O)NNC(=O)c2ccncc2)cc1 was read as D2 ag 2.3, gsp agonist -3%, D2 PAM -4, Six1-Eya2 inh 1, CtBP-E1A blk 4 and gsp antagonist 7%.
COc1ccc(-n2c(COc3ccccc3)n[nH]c2=S)cc1 was read as D2 ag 9.8, gsp agonist -29%, D2 PAM -4, Six1-Eya2 inh 1, CtBP-E1A blk -1 and gsp antagonist inconclusive.
For O=C(CNc1ccccc1F)Nc1cccc(S(=O)(=O)N2CCCCC2)c1 the results were D2 ag 4.6, gsp agonist -19%[15.4 µM], D2 PAM -67, Six1-Eya2 inh -6, CtBP-E1A blk 0 and gsp antagonist 0%.
O=C(O)C1CCN(c2c([N+](=O)[O-])cc(C(F)(F)F)cc2[N+](=O)[O-])CC1 was read as D2 ag 0.3, gsp agonist -19%, D2 PAM 5, Six1-Eya2 inh 7, CtBP-E1A blk 5 and gsp antagonist -4%.
O=C(CSc1nnnn1-c1ccc(F)cc1)Nc1nc2ccccc2s1 was read as D2 ag 5.0, gsp agonist -10%, D2 PAM 15, Six1-Eya2 inh -2, CtBP-E1A blk 3 and gsp antagonist 16%.
O=C(NCC1CCCCC1)c1cccc(S(=O)(=O)N2CCCC2)c1 was read as D2 ag -7.3, gsp agonist -21%, D2 PAM 5, Six1-Eya2 inh 7, CtBP-E1A blk -4 and gsp antagonist 0%.
`CCOC(=O)c1ccc(NC(=S)N(CCN2CCCCCC2)Cc2cccs2)cc1` gave D2 ag 0.4, gsp agonist 1%, D2 PAM -6, Six1-Eya2 inh 0, CtBP-E1A blk -3 and gsp antagonist -7%.
For CCC(=O)Oc1ccc(/C(CC)=C(\CC)c2ccc(OC(=O)CC)cc2)cc1 the results were D2 ag -5.8, D2 PAM 9, Six1-Eya2 inh 2, CtBP-E1A blk 9 and gsp antagonist 0%.
Screening C=CCC1NS(=O)(=O)O[C@H](CCCC)[C@@H]1O (stereo partly drawn) returned D2 ag -2.8, gsp agonist -51%[inhibitor], D2 PAM 1, Six1-Eya2 inh 0, CtBP-E1A blk 7 and gsp antagonist 5%.
`O=c1oc(CCO)cc2ccc(C#Cc3ccsc3)cc12` gave D2 ag 0.2, D2 PAM -23, Six1-Eya2 inh 5, CtBP-E1A blk -5 and gsp antagonist -9%.
`Clc1ccc(-c2csc3ncnc(Cl)c23)cc1` gave D2 ag 0.2, gsp agonist -6%[15.4 µM], D2 PAM -5, Six1-Eya2 inh 0, CtBP-E1A blk -4 and gsp antagonist -6%.
Cc1nnc(NC(=O)CCC(=O)N2CCN(S(=O)(=O)c3cc([N+](=O)[O-])ccc3C)CC2)s1 was read as D2 ag -0.8, gsp agonist 0%[15.4 µM], D2 PAM 4, Six1-Eya2 inh 2, CtBP-E1A blk -3 and gsp antagonist 12%.
Screening Cc1ccc2c(c1)cc(CN(Cc1cccnc1)C(=O)c1ccccc1)c1nnnn12 returned D2 ag -1.9, gsp agonist -7%, D2 PAM 0, Six1-Eya2 inh 0, CtBP-E1A blk 6 and gsp antagonist -14%.
`CCOC(=O)CCCNC(=O)CCNC(=O)c1ccc(OCC(C)C)cc1` gave D2 ag -2.0, gsp agonist -8%[15.4 µM], D2 PAM -8, Six1-Eya2 inh 7, CtBP-E1A blk 3 and gsp antagonist -4%.
`Cc1cc(C)n(C(=O)c2ccc(NC(=O)C3COc4ccccc4O3)cc2)n1` (stereo not drawn) gave D2 ag -3.8, gsp agonist 10%, D2 PAM -20, Six1-Eya2 inh -2, CtBP-E1A blk -1 and gsp antagonist -9%.
CCN(CC(=O)Nc1ccc(N2CCOCC2)cc1)C(=O)COc1ccccc1OC was read as D2 ag -1.5, gsp agonist -25%[15.4 µM], D2 PAM -2, Six1-Eya2 inh 2, CtBP-E1A blk 6 and gsp antagonist -9%.
O=C(O)Cc1ccc(C(=O)c2ccc(F)cc2)s1 was read as D2 ag -1.9, gsp agonist 5%, D2 PAM -5, Six1-Eya2 inh -2, CtBP-E1A blk 0 and gsp antagonist -16%.
For CC1CCc2nn(CC(=O)NCc3ccc(F)cc3)cc2C1 (stereo not drawn) the results were D2 ag 0.2, gsp agonist 19%, D2 PAM 2, Six1-Eya2 inh -2, CtBP-E1A blk 6 and gsp antagonist 11%.
CC(=O)c1cccc(NC(=O)CSc2n[nH]c(=O)n2C2CC2)c1 was read as D2 ag -4.5, gsp agonist -7%, D2 PAM -5, Six1-Eya2 inh -1, CtBP-E1A blk -15 and gsp antagonist 3%.
O=C(COc1ccc2ccccc2c1Br)Nc1cccnc1 was read as D2 ag -7.6, gsp agonist 6.3µM*, D2 PAM -11, Six1-Eya2 inh -12, CtBP-E1A blk 0 and gsp antagonist 17%.
For Cc1noc(-c2ccccc2)c1NC(=O)Nc1ccccc1 the results were D2 ag 4.0, gsp agonist -29%[15.4 µM], D2 PAM -9, Six1-Eya2 inh -1, CtBP-E1A blk 4 and gsp antagonist -16%.

Random excerpt: 2 compounds from above
`O=C(NCc1ccccc1)c1ccc(CNc2c(N3CCCC3)c(=O)c2=O)cc1` gave D2 ag -2.9, gsp agonist 18%, D2 PAM -8, Six1-Eya2 inh 2, CtBP-E1A blk -4 and gsp antagonist -8%.
`COc1ccc(N2CCN(CC(=O)NC(=O)NC(C)(C)C)CC2)cc1` gave D2 ag 3.0, gsp agonist -5%[15.4 µM], D2 PAM -3, Six1-Eya2 inh 4, CtBP-E1A blk -5 and gsp antagonist 5%.

(more compounds)
`CC(=O)c1ccc(NC(=O)CN2CCN(CC(=O)Nc3ccc(C(C)=O)cc3)CC2)cc1` gave D2 ag 2.9, gsp agonist 17%, D2 PAM 3, Six1-Eya2 inh 5, CtBP-E1A blk 0 and gsp antagonist 5%.
Screening CCn1cc(/C=C(\NC(=O)c2ccccc2F)C(=O)NCCCn2ccnc2)c2ccccc21 returned D2 ag -0.2, gsp agonist inconclusive, D2 PAM -24, Six1-Eya2 inh -6, CtBP-E1A blk -15 and gsp antagonist -9%.
NCc1cccc(CNc2ccc([N+](=O)[O-])cc2C(N)=O)c1 was read as D2 ag 5.5, gsp agonist inconclusive, D2 PAM -8, Six1-Eya2 inh 3, CtBP-E1A blk -2 and gsp antagonist -11%.
Screening COc1ccc(C(C)C)cc1S(=O)(=O)NCCCn1ccnc1 returned D2 ag 2.8, gsp agonist -75%[inhibitor], D2 PAM -18, Six1-Eya2 inh 1, CtBP-E1A blk -13 and gsp antagonist 7%.
